Source: PubChem (several laboratories)
STAT3 act = activators of IL-6 induced STAT3 signaling. U3A cells, IL-6 STAT3-luciferase reporter, luminescence; 100% = signal with IL-6 EC80 alone. 190,000 compounds, 0.91% hits. activation (% of control), % at 5.6 µM. AID 871;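 active means activation above the screen-wide mean of compound activation plus 3 SD, cut at about 130% in these data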;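 further: 0% = background luminescence of wells with medium and substrate only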
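Material: STAT1-lacking human U3A cells, STAT3 luciferase reporter | Benchmarks: IL-6-only wells as 100% reference | Probe or stimulus: IL-6 (33 ng/mL) | Timing: Compound 1 h, then IL-6 6 h at 37 °C | Detection: Luminescence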
APP 5'UTR act = APP 5'UTR luciferase reporter activation; SH-SY5Y APP 5'UTR luciferase reporter, luminescence; zero percent = DMSO vehicle wells; 190,000 compounds, 1% hits; activation, % at 2 µM;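 active means activation above a set limit, based on mean plus 3 SD of controls, cut at about 140% in these data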; further: values of inactives mirror those of a sister screen read the other way
ROMK mod = modulators of human ROMK potassium channel. AID 1918. P48048. Tet-inducible ROMK, thallium flux fluorescence; actives lie on both sides. 130,000 compounds, 2% hits. B-score at 10 µM;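 active means signal ratio slope over the read window, or its plate-corrected B-score, at least 3 SD from the plate mean, either direction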;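 further: B-score of the F/F0 ratio slope over 7 to 12 s after thallium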
Target sequence (P48048 whole entry, looked up): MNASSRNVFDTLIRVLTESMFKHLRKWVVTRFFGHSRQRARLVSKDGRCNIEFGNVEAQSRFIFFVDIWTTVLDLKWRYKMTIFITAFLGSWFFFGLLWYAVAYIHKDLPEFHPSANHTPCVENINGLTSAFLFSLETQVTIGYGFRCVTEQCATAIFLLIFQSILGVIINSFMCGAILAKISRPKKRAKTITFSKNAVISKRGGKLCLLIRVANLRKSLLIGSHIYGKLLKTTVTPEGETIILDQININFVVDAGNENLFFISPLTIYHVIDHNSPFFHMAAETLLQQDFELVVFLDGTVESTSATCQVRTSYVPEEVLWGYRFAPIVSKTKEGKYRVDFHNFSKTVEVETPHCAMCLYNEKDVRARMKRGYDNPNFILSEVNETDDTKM
STAT1 blocker = reduces IFN-gamma driven STAT1 reporter signal | 200,000 compounds, 0.35% hits | inhibition, % at 5.5 µM | NIH 3T3 STAT1-luciferase reporter, luminescence;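 active means inhibition above a set limit, the mean inhibition across all tested compounds plus 3 SD, cut at about 34% in these data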;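 further: 0% = IFN-gamma with DMSO and 100% = IFN-gamma with 300 µM nifuroxazide; values of inactives mirror those of a sister screen read the other way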
STAT1 activator = increases IFN-gamma driven STAT1 reporter signal | NIH 3T3 STAT1-luciferase reporter, luminescence; 100% = IFN-gamma alone, no compound | activation (% of control), % at 5.5 µM | 200,000 compounds, 2.6% hits;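 active means activation above the screen-wide mean activation plus 3 SD, cut at about 130% in these data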;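 further: raw ratio to IFN-gamma control signal so 100% means no change and 0% no light; values of inactives mirror those of a sister screen read the other way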
* marks the source's active call; other numbers are inactive results; & = joins results of further samples. An excerpt; rates above refer to the full screens.

What do the screens show for `O=C1CC2(CCCC2)CC(=O)N1CCCCN1CCN(c2ncccn2)CC1`?
STAT3 act: 87; APP 5'UTR act: 1; STAT1 blocker: 1; STAT1 activator: 99

What do the screens show for `CC1(C)S[C@@H]2[C@H](NC(=O)Cc3ccccc3)C(=O)N2[C@H]1C(=O)O`?
STAT3 act: 89; APP 5'UTR act: 1; STAT1 blocker: 2; STAT1 activator: 98

What do the screens show for `NC(=O)N1c2ccccc2CC(=O)c2ccccc21`?
STAT3 act: 104; APP 5'UTR act: 6; STAT1 blocker: -6; STAT1 activator: 106

Results for Cn1cc[nH]c1=S ?
STAT3 act: 100; APP 5'UTR act: -13; STAT1 blocker: 10; STAT1 activator: 91

What do the screens show for `CC(C(=O)O)c1cccc(C(=O)c2ccccc2)c1` (stereo not given)?
STAT3 act: 100; APP 5'UTR act: 13&26; STAT1 blocker: -3; STAT1 activator: 104

Results for O=C(COC(=O)c1cccnc1Cl)c1ccc(F)cc1 ?
STAT3 act: 96; APP 5'UTR act: 8; ROMK mod: -0.015; STAT1 blocker: -28; STAT1 activator: 126

What do the screens show for `Cc1ccc(-c2nnc(-c3ccc4c(c3)OCO4)o2)cc1`?
STAT3 act: 91; APP 5'UTR act: 130; ROMK mod: 1.1; STAT1 blocker: -34; STAT1 activator: 130*

How did O=C(O)c1cccnc1 do in these assays?
STAT3 act: 100; APP 5'UTR act: -8; STAT1 blocker: -11; STAT1 activator: 110

What do the screens show for `CCN1CCN(C(=O)N[C@@H](C(=O)N[C@@H]2C(=O)N3[C@@H]2SC(C)(C)[C@@H]3C(=O)O)c2ccccc2)C(=O)C1=O`?
STAT3 act: 105; APP 5'UTR act: 10; STAT1 blocker: -2; STAT1 activator: 102

What do the screens show for `Cc1occc1-c1nc(-c2ccccn2)no1`?
STAT3 act: 72; APP 5'UTR act: 110; STAT1 blocker: -11; STAT1 activator: 110

Pulled by structure from the list above, 2 records:
What do the screens show for `O=C1CC2(CCCC2)CC(=O)N1CCCCN1CCN(c2ncccn2)CC1`?
STAT3 act: 87; APP 5'UTR act: 1; STAT1 blocker: 1; STAT1 activator: 99

What do the screens show for `NC(=O)N1c2ccccc2CC(=O)c2ccccc21`?
STAT3 act: 104; APP 5'UTR act: 6; STAT1 blocker: -6; STAT1 activator: 106

(cont.)
What do the screens show for `O=C(CCCN1CCC(O)(c2ccc(Cl)cc2)CC1)c1ccc(F)cc1`?
STAT3 act: 101; APP 5'UTR act: -4; STAT1 blocker: -2; STAT1 activator: 102

How did CC(C)NCC(O)COc1ccc(CCOCC2CC2)cc1 (stereo not given) do in these assays?
STAT3 act: 103; APP 5'UTR act: 3; STAT1 blocker: 0; STAT1 activator: 100

What do the screens show for `CS(=O)(=O)Nc1ccc([N+](=O)[O-])cc1Oc1ccccc1`?
STAT3 act: 100; APP 5'UTR act: 5; STAT1 blocker: 2; STAT1 activator: 98

How did Cc1nc(-c2ccc(C(=O)Nc3ccccc3F)cc2)cs1 do in these assays?
STAT3 act: 25; APP 5'UTR act: 112; ROMK mod: 0.84; STAT1 blocker: 75*; STAT1 activator: 31

How did N#Cc1ccccc1CSc1nc(O)cc(=O)[nH]1 do in these assays?
STAT3 act: 96; APP 5'UTR act: 0; STAT1 blocker: -1; STAT1 activator: 100

Results for COc1cc(Cc2cnc(N)nc2N)cc(OC)c1OC ?
STAT3 act: 99&104; APP 5'UTR act: -4&6; STAT1 blocker: 0&-6; STAT1 activator: 100&106

Results for COc1cc(NS(=O)(=O)c2ccc(N)cc2)ncn1 ?
STAT3 act: 99; APP 5'UTR act: 5; ROMK mod: 1.4&0.47; STAT1 blocker: -10; STAT1 activator: 108

How did CNC(=O)Oc1ccc2c(c1)[C@]1(C)CCN(C)[C@@H]1N2C do in these assays?
STAT3 act: 102; APP 5'UTR act: 14; STAT1 blocker: 3; STAT1 activator: 97

Results for CN1CCN(C2=Nc3cc(Cl)ccc3Nc3ccccc32)CC1 ?
STAT3 act: 99; APP 5'UTR act: -12; STAT1 blocker: -5; STAT1 activator: 104

How did Cc1ccc(C(=O)/C=C/c2ccc(F)cc2)o1 do in these assays?
STAT3 act: 97; APP 5'UTR act: 1; ROMK mod: -1.3; STAT1 blocker: -4; STAT1 activator: 104

By substructure, those above with a carbonyl joined to an NH by a bond outside any ring.
What do the screens show for `CC1(C)S[C@@H]2[C@H](NC(=O)Cc3ccccc3)C(=O)N2[C@H]1C(=O)O`?
STAT3 act: 89; APP 5'UTR act: 1; STAT1 blocker: 2; STAT1 activator: 98

What do the screens show for `NC(=O)N1c2ccccc2CC(=O)c2ccccc21`?
STAT3 act: 104; APP 5'UTR act: 6; STAT1 blocker: -6; STAT1 activator: 106

What do the screens show for `CCN1CCN(C(=O)N[C@@H](C(=O)N[C@@H]2C(=O)N3[C@@H]2SC(C)(C)[C@@H]3C(=O)O)c2ccccc2)C(=O)C1=O`?
STAT3 act: 105; APP 5'UTR act: 10; STAT1 blocker: -2; STAT1 activator: 102

How did Cc1nc(-c2ccc(C(=O)Nc3ccccc3F)cc2)cs1 do in these assays?
STAT3 act: 25; APP 5'UTR act: 112; ROMK mod: 0.84; STAT1 blocker: 75*; STAT1 activator: 31

How did CNC(=O)Oc1ccc2c(c1)[C@]1(C)CCN(C)[C@@H]1N2C do in these assays?
STAT3 act: 102; APP 5'UTR act: 14; STAT1 blocker: 3; STAT1 activator: 97
